Screening data (PubChem BioAssay)
E coli growth = blocks Escherichia coli growth. OD600, 23 h; hits give low values. OD600 absorbance (no concentration beside the values). 330,000 compounds, 0.21% hits;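 active = OD600 absorbance below the run mean of sample wells minus 3.6 SD, in any replicate, cut at about 0.56 in these data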;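 also: stock transfer was 300 nL into about 60 µL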
UCH37 inh = human UCH37 deubiquitinating enzyme inhibition; Q9Y5K5; purified proteasome/UCH37, Ub-AMC cleavage fluorescence; inhibition, % (no concentration beside the values); 330,000 compounds, 0.33% hits; AID 588478;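 active = mean of two replicates above 20%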;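 also: 0% = compound-free wells with enzyme and 100% = wells lacking proteasome; stock transfer was 100 nL into about 20 µL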
Target sequence (Q9Y5K5 whole entry, looked up): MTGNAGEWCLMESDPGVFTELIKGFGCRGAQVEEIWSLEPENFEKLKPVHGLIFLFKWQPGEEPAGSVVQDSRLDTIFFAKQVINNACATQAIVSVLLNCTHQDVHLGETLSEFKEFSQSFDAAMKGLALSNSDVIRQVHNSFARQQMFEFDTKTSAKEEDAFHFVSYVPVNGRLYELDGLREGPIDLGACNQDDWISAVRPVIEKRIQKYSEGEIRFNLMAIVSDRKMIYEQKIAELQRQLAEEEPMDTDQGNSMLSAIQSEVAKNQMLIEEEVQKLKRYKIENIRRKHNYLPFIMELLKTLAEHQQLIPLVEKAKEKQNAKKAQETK
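Material: human UCH37 enzyme supplied as purified proteasome complex. Measure: % inhibition of Ub-AMC cleavage fluorescence. Medium: pH 7.4 Tris-HCl (50 mM) with ovalbumin, ATP-MgCl2, DTT. Times: 30 min preincubation with enzyme, 25 min cleavage at room temperature. Detection: AMC fluorescence intensity at 355/460 nm.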
RanGTP-Imp inh = disruptors of Ran-importin-beta complex formation – biochemical, FRET, CFP-Ran, YFP-importin-beta, homogeneous, primary screen; cell-free CFP-Ran/YFP-importin-beta FRET ratio; inhibition, % (test concentration not listed); 300,000 compounds, 1.1% hits; AID 2216;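 active = most replicates above 15%; inconclusive = exactly half above 15%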;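 also: 0% = DMSO wells and 100% = Ran loaded with GDP instead of GTP; wells of about 40 µL received 100 nL stock; the first replicate is given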
Vif A3G = inhibitors of Vif binding to APOBEC3G peptide, primary screen, biochemical, TR-FRET, GST-Vif 1-94, biotin-A3G peptide, dose response retest (AID 1117319). TR-FRET GST-Vif / biotin-A3G peptide binding; higher % means a stronger effect; test concentration not given here; strong numbers were not always called active. 260,000 compounds, 0.57% hits. one-dose inhibition, %; IC50 in µM for titrated hits;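 active = above the screen mean plus three standard deviations and confirmed in dose response; inconclusive = results disagree or hit not tested in dose response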;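 also: Vif residues 1-94 fused to GST binding biotinylated APOBEC3G peptide 110-148; 0% = full assay without inhibitor and 100% = GST in place of GST-Vif; retest series ran down from 100 µM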
FGF22 binding = FGF22 (human) thermal shift binding; 340,000 compounds, 1.5% hits; recombinant FGF22 thermal shift, SYPRO orange fluorescence; percent of sucrose octasulfate shift, DMSO zero; AID 651658; calls only at 9.99 µM; Q9HCT0;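 active = melting point raised past a set limit in the mean and every replicate; inconclusive = no clear call; three in four hits are not shown here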
Target sequence (Q9HCT0 whole entry, looked up): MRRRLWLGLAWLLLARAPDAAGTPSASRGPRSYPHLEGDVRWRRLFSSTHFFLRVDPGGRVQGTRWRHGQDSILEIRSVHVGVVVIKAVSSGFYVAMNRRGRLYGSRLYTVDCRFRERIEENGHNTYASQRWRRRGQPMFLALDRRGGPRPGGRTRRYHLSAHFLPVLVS
AF4-AF9 inh = blocks AF4 peptide binding to human AF9 | AlphaScreen, biotin-AF4 peptide binding to FLAG-AF9 | AID 651704 | inhibition, % at 10 µM | 350,000 compounds, 0.47% hits | P42568;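 active = every replicate reaching a set inhibition limit, whatever the replicate mean, cut at about 25% in these data; inconclusive = mean inhibition reaches that limit but some replicates miss it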;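 also: 0% = plate neutral control median and 100% = total signal loss; the record names both 10 and 1 µM as test concentration; the first replicate is given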
HNF4A DNA FP = change in binding of human HNF4 alpha to DNA | HNF4a-FITC DNA binding, fluorescence polarization, 1 h | activity change, % at 10 µM | P41235 | AID 1224865 | 360,000 compounds, 0.3% hits; in the data active = activity change above about 30%, passing the limit was not always enough;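 also: controls were the assay level and a saturating level of protein; the project sought stronger binding though the title names inhibitors; some compounds called inactive have numbers as strong as hits; positive values seem to mean higher polarization but the record does not say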
Target sequence (P41235 whole entry, looked up): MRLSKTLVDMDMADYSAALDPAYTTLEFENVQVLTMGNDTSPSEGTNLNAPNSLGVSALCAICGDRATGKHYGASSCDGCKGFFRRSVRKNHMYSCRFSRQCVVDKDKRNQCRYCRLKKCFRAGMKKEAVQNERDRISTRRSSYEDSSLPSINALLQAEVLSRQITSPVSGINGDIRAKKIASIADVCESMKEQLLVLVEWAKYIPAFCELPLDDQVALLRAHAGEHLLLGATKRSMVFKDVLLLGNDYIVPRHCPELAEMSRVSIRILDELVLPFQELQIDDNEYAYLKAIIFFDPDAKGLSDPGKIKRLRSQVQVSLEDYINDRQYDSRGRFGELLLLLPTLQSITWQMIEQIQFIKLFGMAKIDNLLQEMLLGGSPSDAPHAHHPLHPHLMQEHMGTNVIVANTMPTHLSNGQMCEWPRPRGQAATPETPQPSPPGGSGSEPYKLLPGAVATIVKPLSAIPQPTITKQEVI
* hit, by the source's call; i = inactive; ? = inconclusive; . = no result given; + = active, no number; & = joins results of further samples. A portion of the library. The share of hits here may be higher or lower than overall.

SMILES	E coli growth	UCH37 inh	RanGTP-Imp inh	Vif A3G	FGF22 binding	AF4-AF9 inh	HNF4A DNA FP
CCCCCn1c(N)c(-c2nc3ccccc3s2)c2c([N+](=O)[O-])nn(CC)c(=O)c21	0.72	6.3	-1.3	4%	.	.	-1.9
CC(C)NC(=O)c1ccc2c(=O)n(Cc3ccco3)c(=S)[nH]c2c1	0.74	2.7	-1.2	?	.	.	2.0
CCOCCCNC(=O)CCC(=O)NNc1nc2ccccc2c2nc(-c3ccccc3)nn12	0.71	0.8	1.1	15%	i	5.3	1.5
CC(C)(CO)CN1CCC(n2nccc2NC(=O)C2CCOC2)CC1 (stereo unspecified)	.	.	.	-8%	i	-1.1	-0.2
Cc1cc(-n2c(C)cc(C(=O)CSc3[nH]c(=O)cc(C(F)(F)F)c3C#N)c2C)no1	0.68	2.9	.	-14%	i	0.3	-2.3
Cc1cc(C)c(CN2CCN(C(=O)Cn3ccc(N)nc3=O)CC2)c(C)c1	0.75	2.5	.	.	i	-1.1	2.8
CSCCC(NS(=O)(=O)c1ccccc1)C(=O)OCc1cc(=O)oc2cc(O)ccc12 (stereo unspecified)	.	.	?	.	i	0.8	-4.6
Cc1cccc(C(C)C)c1NC(=O)COC(=O)CNS(=O)(=O)c1ccccc1	0.69	2.9	0.6	-3%	i	-3.7	-2.8
Cc1ccc(C(=O)COc2ccccc2-c2ccccc2)cc1	0.69	-0.7	8.2	.	.	.	-1.0
COC(=O)[C@]12CCCCC=C1N(CCC1=CCCCC1)C(=O)[C@H](CC(=O)N1CCCCC1)C2	.	.	.	.	i	2.0	-0.4
CC1=Nc2cc(C(=O)NCc3ccco3)ccc2Sc2ccc(C)cc21	0.67	3.4	3.9	.	.	.	-1.0
CCOc1cc(C2C3=C(CC(C)(C)CC3=O)N(C)C3=C2C(=O)CC(C)(C)C3)ccc1O	0.71	-8.6	-1.3	.	i	-1.4	1.8
CC(=O)c1cnc2nc(SCc3ccc(Cl)cc3)nn2c1C	0.61	2.7	-2.6	.	i	-1.7	-0.7
OCCNc1nc(N2CCOCC2)nc(N2CCOCC2)n1	0.71	0.2	0.2	-10%	i	1.7	-2.0
Cc1c(C(=O)NC(C)CCc2ccccc2)cccc1[N+](=O)[O-] (stereo unspecified)	0.68	5.2	-2.2	0%	.	.	2.0
O=C(c1ccc(S(=O)(=O)Cc2cc(F)ccc2F)c([N+](=O)[O-])c1)N1CCCC1	0.69	4.7	3.0	0%	i	-0.9	1.1
O=C(NNS(=O)(=O)c1ccc(Cl)cc1)C1CCN(Cc2ccccc2)CC1	0.69	1.2	1.9	-2%	.	.	3.6
O=C(Nc1ccccc1)N1CCC(C(=O)N(Cc2ccco2)Cc2cccs2)CC1	0.66	3.9	0.9	11%	.	.	-0.3
O=C1CCC2(CCCCC2)N1	0.69	3.0	.	-7%	i	-3.5	2.1
Cc1c(NC(=O)c2ccc3c(c2)C(=O)N(CC2CCCO2)C3=O)cccc1C(=O)O (stereo unspecified)	.	.	4.7	2%	.	.	1.2

Next section, starting with the last 3 of the part before.
SMILES	E coli growth	UCH37 inh	RanGTP-Imp inh	Vif A3G	FGF22 binding	AF4-AF9 inh	HNF4A DNA FP
O=C(Nc1ccccc1)N1CCC(C(=O)N(Cc2ccco2)Cc2cccs2)CC1	0.66	3.9	0.9	11%	.	.	-0.3
O=C1CCC2(CCCCC2)N1	0.69	3.0	.	-7%	i	-3.5	2.1
Cc1c(NC(=O)c2ccc3c(c2)C(=O)N(CC2CCCO2)C3=O)cccc1C(=O)O (stereo unspecified)	.	.	4.7	2%	.	.	1.2
CCOc1cc(/C=N/NC(=O)c2nnn(-c3nonc3N)c2C)ccc1OCc1ccc(F)cc1	.	.	1.3	.	i	-0.4	0.3
Oc1cnn(-c2ccccc2)c1	0.69	-0.4	-1.2	4%	.	.	-2.2
Cc1nnc(NCc2n[nH]c(=O)c3ccccc23)c2ccccc12	0.74	1.4	2.1	-3%	i	8.4	2.1
CCn1c(=O)c(C(=O)NCc2ccccc2OC)c(O)c2ccccc21	0.73	2.1	7.2	.	i	-0.7	1.3
CCCCn1c(N)c(N(CCOC)C(=O)c2ccc(Cl)c(S(=O)(=O)N3CCCC3)c2)c(=O)[nH]c1=O	0.68	-3.6	4.2	.	i	-2.1	0.1
CCCCN1C(=O)C(CC(=O)NCCCCc2ccccc2)CC(C(=O)N2CCCCCC2)=C1C (stereo unspecified)	.	.	.	.	i	-1.5	0.4
COc1ccc(N2CC(NC(=O)c3ccc4ccccc4c3)CC2=O)cc1OC (stereo unspecified)	0.63	2.3	-2.0	-5%	i	-0.9	-1.2
Cc1ccsc1/C=N/N=C/c1sccc1C	.	.	0.0	.	i	-7.1	-4.5
O=C(OCCc1cc2ccccc2c(=O)o1)c1ccc(F)cc1	0.7	-0.4	.	.	i	-4.0	6.5
COC(=O)c1cccc(S(=O)(=O)N(Cc2ccco2)Cc2cc3ccc(OC)cc3[nH]c2=O)c1	0.76	-4.8	.	-2%&-9%	.	.	2.7
COC(=O)CNC(=O)CN1C(=O)NC2(CCCc3ccccc32)C1=O (stereo unspecified)	0.67	3.1	-3.8	-5%	i	-1.0	-0.1
COc1ccc(NS(=O)(=O)c2cc(NC(=O)c3cc(F)c(F)c(F)c3F)ccc2N2CCCC2)cc1	0.73	1.3	-0.5	-4%	i	1.0	1.2
O=c1cc(CN2CCOCC2)nc(C2CC2)[nH]1	0.69	2.2	-1.7	-7%	.	.	1.3
Cc1ccc(-c2nc(C)sc2CC(=O)NCc2ccco2)cc1	0.74	1.3	-1.4	10%	.	.	-1.4
CN1CCN(c2ccccc2NC(=O)COc2ccc(Br)cc2)CC1	0.69	3.0	-0.9	0%	.	.	3.0
OCC1CCCN(C(=S)Nc2ccc(Oc3ccccc3)cc2)C1 (stereo unspecified)	0.68	0.3	?	23%	i	2.5	2.0
COc1ccc(-c2ccc3nccn3c2)cc1	.	.	.	.	i	-2.3	-2.1
CCOC(=O)c1c(NC(=O)CSc2nccc(=O)[nH]2)sc(C)c1C	0.69	5.0	2.9	.	i	-1.5	0.1
O=C(Nc1nc2cc3c(cc2s1)OCCO3)C1=COCCO1	0.69	2.2	4.5	-2%	i	-1.1	3.5
CC(=O)n1cc(N(C(=O)CCl)c2ccc(Cl)cc2)c2ccccc21	0.62	3.9	-0.9	19%	.	.	-1.0
COC(=O)c1ccc(CNC(=O)Cn2cnnn2)cc1	0.67	5.1	-0.3	-9%	i	-10.0	-3.1
COc1ccc(CNC(=O)COC(=O)c2c(NC(C)=O)sc(C)c2C)cc1OC	.	.	.	2%	i	1.1	5.2
CCCOC(=O)CC1C(=O)NCCN1Cc1ccc(F)cc1 (stereo unspecified)	0.71	2.2	1.5	-2%	i	-1.6	-0.1
CCC(=O)N/N=C(\C)CC(=O)Nc1ccc(F)cc1	.	.	-4.6	-3%	i	-2.7	0.5
CC1CCCCN1S(=O)(=O)c1ccc(NC(=O)CSc2nnnn2C)cc1 (stereo unspecified)	0.71	5.3	-2.6	-4%	.	.	-3.3
Cc1ccccc1-n1c(Cn2c(=O)sc3ccccc32)nnc1SC(C)C	0.78	4.0	4.2	?	i	-9.2	0.2
Cc1cccc(NC(=O)CN2CCCN(S(=O)(=O)c3ccc(Br)s3)CC2)c1	0.7	2.0	0.2	-3%	.	.	-0.4
COc1ccc(-n2c(=O)c3ccccc3c3ccccc3c2=O)c(OC)c1	0.71	0.8	4.5	.	i	-2.2	-1.4
CC(C)[C@H](NC(=O)c1cc2cc(Cl)ccc2n1C)C(=O)N[C@@H](C(=O)O)c1ccccc1	0.66	0.9	-3.8	1%	i	-0.6	0.8
Cn1c(SCc2ccc(F)cc2)nnc1-c1ccccn1	0.69	1.7	?	-1%	.	.	-2.7
CCOc1cc(C(=S)N2CCOCC2)ccc1OC	0.65	2.7	2.0	-2%	.	.	1.4
CCOC(=O)N1CCC(Nc2c(Nc3ccc(C)c(C)c3)c(=O)c2=O)CC1	0.69	3.4	2.4	17%	i	-4.0	2.2
CC(=O)c1ccc(OCC(C)C)c(CC(C(N)=O)C(N)=O)c1	0.69	3.2	1.4	0%	i	-20	-6.0
O=C1CSC(=Nc2cccc(Cl)c2Cl)N1	0.66	3.8	8.2	.	i	-0.7	-1.8
COc1cc2c(cc1OC)[C@@H](NC(=O)C(C)C)[C@H](O)C2	0.71	1.2	.	-2%	i	-0.6	-6.7
COc1cccc(-c2cc(NC=O)c3ncc(-c4ccc(OC)c(OC)c4)n3c2)c1	.	.	.	.	i	-1.9	1.9
COc1ccc(/C=N/NC(=O)c2ccc(Cl)cc2Cl)cc1COC(C)=O	.	.	4.2	.	i	5.4	-1.6
Cc1ccc(S(=O)(=O)NNC(=S)Nc2ccccc2)cc1	0.64	-1.2	-0.2	-2%	.	.	-1.2
O=C(CN(Cc1cccs1)C(=O)CNS(=O)(=O)c1ccc(F)cc1)NCC1CCCO1 (stereo unspecified)	0.71	6.8	2.2	.	i	-1.4	1.9
CCOc1ccccc1NC(=S)NCc1ccco1	0.72	1.9	?	-1%	.	.	2.4
Cc1ccc(-c2cc(C(F)(F)F)n3ncc(C(=O)O)c3n2)cc1	0.76	0.0	1.6	13%	.	.	-0.7
NC(=O)c1cc(S(=O)(=O)NC2CCCCC2)co1	0.7	5.3	-1.7	18%	.	.	3.2
Cc1cc[n+](-c2[nH]c(=O)sc2/C=N/NC([S-])=Nc2ccccc2)cc1	.	.	-2.7	.	i	8.3	-41
CC(C)(C)NC(=O)COC(=O)c1ccccc1C(=O)c1ccccc1	0.69	1.7	1.4	11%	i	-1.2	-1.9
COc1ccc(NC(=O)Nc2cccc(OC)c2)cc1	0.68	1.7	-4.3	.	.	.	0.2
O=C1CC(O)(C(F)F)Oc2ccc3ccccc3c21 (stereo unspecified)	0.7	-378	0.3	1%	.	.	1.7
COc1cccc(NC(=O)Cn2c(CCC(=O)O)ccc2-c2cccs2)c1	0.72	-7.6	-3.2	?	i	-0.9	5.1
CC(C)(C)NC(=O)NC(=O)COC(=O)CNC(=O)c1cccc(F)c1	0.66	4.3	-1.4	0%	.	.	-2.1
Cn1nc(N)c2c(-c3ccc(Cl)cc3)c(C#N)c(N)nc21	0.62	2.8	3.2	.	.	.	-3.3
CCn1c(SCC(=O)Nc2ccccc2OC)nc(O)cc1=O	0.69	7.9	1.0	-8%	i	.	-0.6
O=C(OCc1ccccc1Cl)c1cccnc1Cl	0.72	0.7	0.2	-2%	.	.	0.1
Oc1ccc(CNCC2COc3ccccc3O2)cc1 (stereo unspecified)	0.67	7.9	4.8	7%	.	.	2.9
COc1cc2c(cc1OC)C(c1ccc([N+](=O)[O-])cc1)NC(=O)C2 (stereo unspecified)	0.66	5.7	-0.8	4%	i	-1.4	-0.3
CCOC(=O)Cn1c(-c2ccccc2)cc(SC)c(C#N)c1=O	0.67	1.5	-2.5	7%	i	-1.3	-2.5
CN(Cc1ccco1)C(=O)CSc1nc(C2CC2)n(-c2ccccc2)n1	0.73	-0.3	.	11%	i	-0.1	0.1
O=C(Nc1ccc(S(=O)(=O)N2CCOCC2)cc1)c1ccc(F)cc1	0.7	4.5	2.3	.	+	-0.6	0.5
Cc1ccc2nc3c(cc(C#N)c(=N)n3Cc3cccnc3)c(=O)n2c1	0.68	-30	94*	-11%	.	.	.
COc1ccc(NC(=S)Nc2nc(CC(=O)Nc3ccccc3OC)cs2)cc1	0.71	1.6	-2.1	2%	.	.	1.2
COc1ccc(CCN(Cc2cccs2)S(=O)(=O)c2ccc(-n3cnnn3)c(OC)c2)cc1OC	0.74	3.0	4.6	6%	.	.	1.4
